Screening results as filed in PubChem.
MLL AF4-AF9 inh – inhibitors of human MLL-AF4/AF9 interaction; AlphaScreen, biotin-AF4 peptide binding to FLAG-AF9; inhibition, % at 10 µM; P42568; hit rate 0.47% among 350,000; AID 651704;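 active means every replicate reaching a set inhibition limit, whatever the replicate mean, cut at about 25% in these data; inconclusive means mean inhibition reaches that limit but some replicates miss it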;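 further: 0% = plate neutral control median and 100% = total signal loss; the record names both 10 and 1 µM as test concentration; the first replicate is given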
Ecoli growth – E. coli growth inhibition; Escherichia coli growth, OD600, 23 h; active compounds read low; OD600 absorbance (concentration not given with the values); hit rate 0.21% among 330,000; AID 1053175;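 active means OD600 absorbance below the run mean of sample wells minus 3.6 SD, in any replicate, cut at about 0.56 in these data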;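 further: stock transfer was 300 nL into about 60 µL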
rRNA inh HTS – inhibitors of bacterial rRNA selective over humanized ribosomes; E. coli WT GFP vs humanized-ribosome RFP mutants, fluorescence, 24 h; active compounds read low; DMSO median 0, no signal -100; GFP signal change (wild-type ribosome), % (concentration not given with the values); hit rate 1.6% among 350,000;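 active means significant combined selectivity score with lowered wild-type GFP, culture density cut under 30%, mutant RFP and density less affected; inactive means any of these conditions unmet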; further: one replicate is shown; some compounds called inactive have numbers as strong as hits
Vif A3G – HIV-1 Vif–A3G interaction blockers – biochemical, TR-FRET, GST-Vif 1-94, biotin-A3G peptide, dose response retest, primary screen (AID 1117319) | TR-FRET GST-Vif / biotin-A3G peptide binding; higher % means a stronger effect; test concentration not given here; strong numbers were not always called active | hit rate 0.57% among 260,000 | one-dose inhibition, %; IC50 in µM for titrated hits;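 active means above the screen mean plus three standard deviations and confirmed in dose response; inconclusive means results disagree or hit not tested in dose response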;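 further: Vif residues 1-94 fused to GST binding biotinylated APOBEC3G peptide 110-148; 0% = full assay without inhibitor and 100% = GST in place of GST-Vif; retest series ran down from 100 µM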
ALR H2O2 inh – human ALR oxidase inhibition via reduced H2O2 | purified ALR, DTT oxidation, H2O2 HRP-luminol luminescence | inhibition, % (concentration not given with the values) | hit rate 3.8% among 290,000 | AID 485317;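 active means mean and each replicate at 75% or more; inconclusive means only one of the two met; inactive means neither met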;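 further: stock transfer was 7.5 nL into about 7.5 µL; 0% = neutral wells and 100% = wells with inactivated enzyme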
Target sequence (P55789 whole entry, looked up): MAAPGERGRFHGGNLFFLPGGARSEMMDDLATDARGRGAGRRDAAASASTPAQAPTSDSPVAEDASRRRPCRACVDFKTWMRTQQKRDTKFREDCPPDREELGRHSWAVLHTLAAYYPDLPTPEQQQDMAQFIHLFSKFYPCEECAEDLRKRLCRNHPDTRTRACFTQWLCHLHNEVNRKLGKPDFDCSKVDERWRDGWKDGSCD
HNF4A DNA FP – change in binding of human HNF4 alpha to DNA; P41235; HNF4a-FITC DNA binding, fluorescence polarization, 1 h; activity change, % at 10 µM; hit rate 0.3% among 360,000; in the data active means activity change above about 30%, passing the limit was not always enough;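 further: controls were the assay level and a saturating level of protein; the project sought stronger binding though the title names inhibitors; some compounds called inactive have numbers as strong as hits; positive values seem to mean higher polarization but the record does not say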
Target sequence (P41235 whole entry, looked up): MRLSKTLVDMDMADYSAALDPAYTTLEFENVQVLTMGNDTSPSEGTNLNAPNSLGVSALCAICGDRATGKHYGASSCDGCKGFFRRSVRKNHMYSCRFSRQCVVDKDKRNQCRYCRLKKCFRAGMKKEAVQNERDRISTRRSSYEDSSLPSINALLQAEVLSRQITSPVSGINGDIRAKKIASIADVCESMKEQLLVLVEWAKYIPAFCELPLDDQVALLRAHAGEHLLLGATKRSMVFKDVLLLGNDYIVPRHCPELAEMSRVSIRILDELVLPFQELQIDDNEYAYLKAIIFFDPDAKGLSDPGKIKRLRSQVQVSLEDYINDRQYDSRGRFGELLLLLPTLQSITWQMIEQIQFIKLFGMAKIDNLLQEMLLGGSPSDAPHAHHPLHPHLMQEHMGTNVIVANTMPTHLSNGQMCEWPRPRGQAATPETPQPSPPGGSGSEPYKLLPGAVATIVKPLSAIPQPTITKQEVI
FGF22 binding – shifts melting point of recombinant human FGF22; hit rate 1.5% among 340,000; calls only at 9.99 µM; recombinant FGF22 thermal shift, SYPRO orange fluorescence; percent of sucrose octasulfate shift, DMSO zero; AID 651658;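 active means melting point raised past a set limit in the mean and every replicate; inconclusive means no clear call; three in four hits are not shown here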
Target sequence (Q9HCT0 whole entry, looked up): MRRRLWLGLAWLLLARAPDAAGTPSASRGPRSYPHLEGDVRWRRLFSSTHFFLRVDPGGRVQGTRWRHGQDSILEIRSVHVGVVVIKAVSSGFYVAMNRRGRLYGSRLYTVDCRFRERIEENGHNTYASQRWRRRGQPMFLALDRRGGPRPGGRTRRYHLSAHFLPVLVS
rRNA inh HTS OD600 – further read-out of rRNA inh HTS, marked with its call; OD600 change, %; measured here: OD600 growth;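 optical density of the mix in the first replicate; 0 = DMSO median and -100 = no signal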
rRNA inh HTS RFP – also measured in rRNA inh HTS; calls as there; RFP signal change, %; measured here: RFP humanized mutant strains;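 first replicate; 0 = DMSO median and -100 = no signal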
An asterisk follows results filed as active; i = inactive; u = inconclusive; x = not tested or not shown.

SMILES	MLL AF4-AF9 inh	Ecoli growth	rRNA inh HTS	rRNA inh HTS OD600	rRNA inh HTS RFP	Vif A3G	ALR H2O2 inh	HNF4A DNA FP	FGF22 binding
CCOc1cc(/C=N\NC(=O)OC)ccc1OC(=O)c1ccco1	0.3	x	-2	-3	-1.4	2%	22	1.8	x
CCCNC(=O)c1cc(C2CCCCN2S(C)(=O)=O)on1 (stereo not drawn)	0.3	x	16	20	-2.1	x	x	4.5	i
O=C(CCc1ccc(S(=O)(=O)N2CCOCC2)cc1)N/N=C/c1ccc(F)cc1F	3.0	x	7	1	-0.2	x	5	0.4	i
O=C(NCc1ccccc1)c1cccc(NC(=O)C2CCCC2)c1	-2.3	x	-9	-6	-3.4	12%	x	-0.4	i
Cc1cc(C)n2nc(C(=O)N3CCN(c4ccc([N+](=O)[O-])cc4)CC3)nc2n1	1.4	0.68	x	x	x	10%	97*	1.6	i
C[C@H]1CN([C@@H](C)CO)C(=O)c2cc(C#CCN(C)C)cnc2O[C@@H]1CN(C)Cc1ccc(C(=O)O)cc1	-13	x	4	6	-0.3	x	x	x	i
COc1ccc(CCNC(C(=O)Nc2cc(C)cc(C)c2)c2ccccc2)cc1 (stereo not drawn)	-2.0	0.73	-14	-15	-6.7	x	-2	5.9	i
Cc1ccc(S(=O)(=O)N2C[C@H]3n4c(=O)ccc(=O)n4C[C@H](OC(=O)NCc4ccco4)[C@@]3(O)C2)cc1	0.6	x	4	5	6.6	-6%	x	-6.4	i
Cc1nnc(NC(=O)c2ccc(S(=O)(=O)N(C)c3ccccc3)cc2)s1	-4.4	0.68	6	11	-0.6	x	30	-1.7	i
C[C@@H]1CN([C@@H](C)CO)C(=O)c2cc(NC(=O)Nc3ccc4c(c3)OCO4)ccc2O[C@H]1CN(C)S(C)(=O)=O	-1.4	x	3	-1	-1.4	x	x	x	i
C[C@@H]1CCCCO[C@H](CN(C)C(=O)Nc2ccc(C(F)(F)F)cc2)[C@@H](C)CN([C@@H](C)CO)C(=O)c2cc(NS(=O)(=O)c3ccc(Cl)cc3)ccc2O1	-1.9	x	-1	4	-3.4	x	x	x	i
O=C(O)C(c1ccccc1)C(c1ccccc1)c1ccccc1 (stereo not drawn)	7.5	0.71	6	-3	-0.2	-1%	-1	-1.1	i
C[C@@H]1CCCCO[C@H](CN(C)C(=O)CCCN(C)C)[C@@H](C)CN([C@H](C)CO)C(=O)c2cc(NC(=O)CCCN(C)C)ccc2O1	-3.4	x	4	0	-3.3	x	x	x	i
Cc1nnc(SCc2cn3ccsc3n2)n(N)c1=O	x	0.66	x	x	x	-3%	-3	-0.8	x
CC(C)CNC(=O)COC(=O)Cc1ccc(Cl)cc1	0.5	0.71	1	6	-0.4	5%	x	0.2	i
Cc1c(Cl)c([N+](=O)[O-])nn1CC(=O)NCc1ccco1	x	0.74	x	x	x	1%	-18	-0.5	x
CCOc1ccccc1N(C(=O)c1snc(C(N)=O)c1N)C(C(=O)NCc1ccccc1)c1ccc(O)cc1 (stereo not drawn)	-1.9	0.69	-11	-19	5.8	x	x	-0.2	i
CCOc1ccc(S(=O)(=O)N2CCCCC2)cc1NC(=O)CC1OC(=O)c2ccccc21 (stereo not drawn)	0.7	0.69	5	-2	1.2	-1%	1	-1.9	i
Cc1cc(-c2ccccc2)nc(N/N=C/c2ccc([N+](=O)[O-])cc2)n1	0.7	x	7	4	-1.1	2%	-2	0.5	i
CCN(CC(=O)Nc1c(F)cccc1F)C(=O)c1cccc(S(=O)(=O)N2CCCCCC2)c1	0.7	0.66	x	x	x	-7%	x	-7.2	i
CCOC(=O)C(NC(C)=O)C(=O)Nc1ccc(OC)cc1 (stereo not drawn)	-1.4	0.7	5	2	1.3	5%	-3	-1.2	i
CCN(CC(=O)NCc1cccs1)C(=O)c1ccc(C)o1	-0.9	0.67	x	x	x	-3%	-19	0.2	i
Cn1c(=O)c2c(nc(NCCNC(=O)c3ccco3)n2Cc2ccccc2)n(C)c1=O	-0.5	0.67	-1	3	-4.5	x	x	0.1	i
Cc1ccc(C(=O)N/N=C/c2sc(=O)n(Cc3cccc(C(=O)O)c3)c2Cl)cc1	x	x	x	x	x	2%	50	-0.2	x
O=C(Nc1cccc(F)c1)N1CC(=O)N2[C@@H](CO)[C@H](c3ccc(Br)cc3)[C@@H]2C1	0.2	x	-5	5	0.5	x	x	x	i

Full records, quoted from the list:
`Cc1cc(C)n2nc(C(=O)N3CCN(c4ccc([N+](=O)[O-])cc4)CC3)nc2n1` reads MLL AF4-AF9 inh = 1.4; Ecoli growth = 0.68; rRNA inh HTS = x; rRNA inh HTS OD600 = x; rRNA inh HTS RFP = x; Vif A3G = 10%; ALR H2O2 inh = 97*; HNF4A DNA FP = 1.6; FGF22 binding = i
`CCN(CC(=O)NCc1cccs1)C(=O)c1ccc(C)o1` reads MLL AF4-AF9 inh = -0.9; Ecoli growth = 0.67; rRNA inh HTS = x; rRNA inh HTS OD600 = x; rRNA inh HTS RFP = x; Vif A3G = -3%; ALR H2O2 inh = -19; HNF4A DNA FP = 0.2; FGF22 binding = i

Other records.
SMILES	MLL AF4-AF9 inh	Ecoli growth	rRNA inh HTS	rRNA inh HTS OD600	rRNA inh HTS RFP	Vif A3G	ALR H2O2 inh	HNF4A DNA FP	FGF22 binding
O=C(NC1CCCCCC1)C1CCN(S(=O)(=O)c2cccc3cccnc23)CC1	-1.4	x	9	12	6.1	-60%	38	1.6	i
O=C(N[C@H]1C/C=C\C[C@@H](CC(=O)N(CCO)Cc2ccccc2)C(=O)NC[C@H](c2ccccc2)OC1=O)OCC1c2ccccc2-c2ccccc21	2.7	x	x	x	x	x	-2	-0.1	i
CCOc1ccccc1NC(=O)CCS(=O)(=O)c1ccc(Br)cc1	-16	0.67	2	4	-3.3	7.5µM*	3	-27	i
COc1ccc(NC(=O)C2CCCN(S(=O)(=O)c3c(C)[nH]c(=O)[nH]c3=O)C2)cc1OC (stereo not drawn)	-1.1	0.67	20	28	4.9	-1%	-6	-0.3	i
O=C(Nc1ccc(F)cc1)C1CCCN(C2=NS(=O)(=O)c3ccccc32)C1 (stereo not drawn)	5.8	0.7	1	0	-0.9	-9%	0	1.3	i
C/C=C/c1ccc([C@@H]2[C@@H](CO)N(c3ncc(CC)s3)[C@H]2C#N)cc1	-0.6	x	-10	-46	6.2	x	x	x	i
Cc1ccccc1-c1cnc2c(c1)C(=O)N([C@@H](C)CO)C[C@H](C)[C@H](CN(C)Cc1ccccc1F)O2	-0.4	x	-2	-3	0.4	x	x	x	i
COc1ccc(N2CCCC2)c(NC(=O)c2ccc(Br)o2)c1	3.5	0.71	-12	-18	1.2	x	x	-3.3	i
COc1ccc2c(c1)C(C)=CC(C)(C)N2S(=O)(=O)c1ccc(C)cc1	4.1	0.72	-5	-9	-1.9	-11%	-29	-1.2	i
Cc1n[nH]c(C)c1N1C(=O)c2cccc3c(N4CCCCCC4)ccc(c23)C1=O	x	0.66	x	x	x	-2%	x	-86	x
COCc1cc(=O)[nH]c(SCCS(=O)(=O)c2ccc(Cl)cc2Cl)n1	2.1	0.7	1	4	0.0	17%	x	0.0	i
COc1cc2c(cc1NC(=O)COC(=O)CNS(=O)(=O)c1ccc(C)cc1)oc1ccccc12	5.4	0.72	4	4	-1.6	10%	13	2.4	i
CCN(CC)C(=O)c1sc(NC(=O)c2cccnc2)c(C(=O)OC)c1C	-0.9	0.71	2	10	-6.3	-1%	x	5.3	i
COc1cccc(C(C)(O)c2nc(-c3cccc(C#N)c3)cs2)c1 (stereo not drawn)	-4.3	x	-63	-76	-21	x	x	0.0	i
CCOC(=O)N1CCN(C(=O)c2ccc(NC(=O)c3ccc(C)cc3)cc2)CC1	x	0.71	x	x	x	81%	-3	0.1	x
Cc1ccc(S(=O)(=O)N2CCN(C(=O)COC(=O)CCOc3ccccc3C)CC2)c(C)c1	0.1	0.69	5	-1	0.8	-1%	x	0.1	i
O=C(O)C1CC(O)CN1S(=O)(=O)c1cccs1 (stereo not drawn)	x	0.7	x	x	x	-3%	x	7.4	x
CC(C)=NOC(=O)c1ccc(-c2ccccc2)cc1	x	0.65	x	x	x	-3%	-5	-1.5	x
N#CNC(=Nc1ccccc1F)SCc1ccc(C(=O)O)cc1	-2.1	0.65	15	10	-1.7	u	99*	-6.2	i
CCCCC(OC(=O)c1cc2occc2n1C)C(=O)NCC1CCCO1 (stereo not drawn)	-35	0.67	7	0	0.6	-1%	-1	4.0	i
CCOC(=O)CSc1nnnn1-c1cc(OC)ccc1OC	x	0.66	x	x	x	-2%	1	3.3	x
Cc1n[nH]c(=O)nc1NCc1ccco1	x	0.7	x	x	x	-1%	1	-1.6	x
C[C@H]1CN([C@@H](C)CO)C(=O)c2cc(NS(=O)(=O)c3cccs3)ccc2O[C@H]1CN(C)C(=O)Nc1ccccc1	-2.3	x	0	5	1.9	x	x	x	i
O=C(NCc1ccc2c(c1)OCO2)c1ccc(Br)o1	3.7	0.67	-17	-6	-0.8	-2%	0	1.4	i
CCN(CC)CCCNC(=O)c1cc(Sc2nnc(C)s2)nc2ccccc12	x	0.69	x	x	x	x	-3	0.6	x
O=c1[nH]c2ccc(S(=O)(=O)N3CCN(c4ccccc4)CC3)cc2[nH]c1=O	-1.6	0.67	0	-2	-5.2	1%	14	-6.8	i
COc1cc2ccccc2cc1C(=O)Nc1ccc(CN2CCOCC2)cc1	2.8	0.71	-6	-11	1.8	x	-2	3.4	i

Gathered by group: the compounds so far containing a Cl atom.
SMILES	MLL AF4-AF9 inh	Ecoli growth	rRNA inh HTS	rRNA inh HTS OD600	rRNA inh HTS RFP	Vif A3G	ALR H2O2 inh	HNF4A DNA FP	FGF22 binding
C[C@@H]1CCCCO[C@H](CN(C)C(=O)Nc2ccc(C(F)(F)F)cc2)[C@@H](C)CN([C@@H](C)CO)C(=O)c2cc(NS(=O)(=O)c3ccc(Cl)cc3)ccc2O1	-1.9	x	-1	4	-3.4	x	x	x	i
CC(C)CNC(=O)COC(=O)Cc1ccc(Cl)cc1	0.5	0.71	1	6	-0.4	5%	x	0.2	i
Cc1c(Cl)c([N+](=O)[O-])nn1CC(=O)NCc1ccco1	x	0.74	x	x	x	1%	-18	-0.5	x
Cc1ccc(C(=O)N/N=C/c2sc(=O)n(Cc3cccc(C(=O)O)c3)c2Cl)cc1	x	x	x	x	x	2%	50	-0.2	x
COCc1cc(=O)[nH]c(SCCS(=O)(=O)c2ccc(Cl)cc2Cl)n1	2.1	0.7	1	4	0.0	17%	x	0.0	i

Single values from above.
Entry for COc1ccc(NC(=O)C2CCCN(S(=O)(=O)c3c(C)[nH]c(=O)[nH]c3=O)C2)cc1OC (stereo not drawn) in Ecoli growth: 0.67
Entry for CCOc1ccccc1NC(=O)CCS(=O)(=O)c1ccc(Br)cc1 in Vif A3G: 7.5µM*

Sorted by value in rRNA inh HTS (low to high): four from the list above.
canonical_smiles | MLL AF4-AF9 inh | rRNA inh HTS | rRNA inh HTS OD600 | rRNA inh HTS RFP | Vif A3G | ALR H2O2 inh | HNF4A DNA FP | FGF22 binding
C/C=C/c1ccc([C@@H]2[C@@H](CO)N(c3ncc(CC)s3)[C@H]2C#N)cc1 | -0.6 | -10 | -46 | 6.2 | x | x | x | i
COc1ccc2c(c1)C(C)=CC(C)(C)N2S(=O)(=O)c1ccc(C)cc1 | 4.1 | -5 | -9 | -1.9 | -11% | -29 | -1.2 | i
CCOc1ccccc1NC(=O)CCS(=O)(=O)c1ccc(Br)cc1 | -16 | 2 | 4 | -3.3 | 7.5µM* | 3 | -27 | i
N#CNC(=Nc1ccccc1F)SCc1ccc(C(=O)O)cc1 | -2.1 | 15 | 10 | -1.7 | u | 99* | -6.2 | i

Some of the compounds tested; count on the stated rates, not on these rows.
